High-throughput results from PubChem BioAssay.
p53 mut binder = mutant p53 (human) binding; small molecule microarray binding, anti-GST fluorescence; calls only; hit rate 0.4% among 17,000; AID 624136;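 active = compounds whose four printed spots each glow above background more than chance allows, each with a p-value under 7%; compounds were printed on slides so no solution concentration is given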;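 note: about 2 pmol printed per array spot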
c-Myc SMM = c-Myc (human) binding; hit rate 1.5% among 17,000; AID 624141; calls only; P01106; small molecule microarray, His-c-Myc binding, anti-His fluorescence;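 active = spot fluorescence over background with P-value below 7% in all four replicate spots, showing protein binding; compounds were printed on slides so no solution concentration is given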;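 note: score is binary with 100 for all four spots passing and 0 otherwise; about 2 pmol printed per array spot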
STAT3 SMM = STAT3 (human) binding; hit rate 0.2% among 17,000; Small molecule microarray, His-STAT3 binding, anti-His fluorescence; AID 624138; calls only; P40763;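 active = compounds whose four printed spots each show fluorescence over background unusually high for their array block, chance value under 7%; compounds were printed on slides so no solution concentration is given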;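 note: about 2 pmol printed per array spot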
Target sequence (P40763 whole entry, looked up): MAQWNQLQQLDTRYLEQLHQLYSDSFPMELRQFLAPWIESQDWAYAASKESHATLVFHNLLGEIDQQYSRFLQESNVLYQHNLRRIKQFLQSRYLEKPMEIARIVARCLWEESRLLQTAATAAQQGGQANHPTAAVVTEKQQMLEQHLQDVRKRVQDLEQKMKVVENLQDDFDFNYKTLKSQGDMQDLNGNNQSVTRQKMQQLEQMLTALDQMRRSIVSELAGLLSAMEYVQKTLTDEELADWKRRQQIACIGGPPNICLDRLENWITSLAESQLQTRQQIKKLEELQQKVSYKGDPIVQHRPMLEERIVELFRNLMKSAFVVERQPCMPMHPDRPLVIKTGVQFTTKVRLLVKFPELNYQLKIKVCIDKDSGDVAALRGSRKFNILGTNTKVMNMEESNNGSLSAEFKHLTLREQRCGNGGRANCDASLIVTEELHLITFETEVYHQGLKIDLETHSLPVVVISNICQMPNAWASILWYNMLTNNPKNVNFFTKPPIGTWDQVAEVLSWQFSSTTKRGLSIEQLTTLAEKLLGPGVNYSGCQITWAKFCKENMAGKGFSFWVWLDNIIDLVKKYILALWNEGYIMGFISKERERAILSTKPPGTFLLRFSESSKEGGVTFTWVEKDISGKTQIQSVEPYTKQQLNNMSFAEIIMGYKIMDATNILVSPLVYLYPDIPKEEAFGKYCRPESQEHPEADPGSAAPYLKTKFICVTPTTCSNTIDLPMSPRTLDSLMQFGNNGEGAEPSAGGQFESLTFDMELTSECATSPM
ID4 binder = binders of human ID4 protein | P47928 | calls only | small molecule microarray, Flag-ID4 binding, fluorescence F/B | hit rate 1.2% among 31,000;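 active = spot signal over background at p below 0.07 in all four prints; compounds were printed on slides so no solution concentration is given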;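 note: a binder raises fluorescence above local background on the spot; about 2 pmol printed per array spot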
Target sequence (P47928 whole entry, looked up): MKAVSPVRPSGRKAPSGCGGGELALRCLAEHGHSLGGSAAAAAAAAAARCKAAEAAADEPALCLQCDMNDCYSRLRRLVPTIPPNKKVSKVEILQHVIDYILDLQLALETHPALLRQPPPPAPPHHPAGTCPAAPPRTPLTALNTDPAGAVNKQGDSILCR
Calls only; i = inactive; x = no result given; + = active, no number. These rows are one share of the data; rates above refer to the full screens.

SMILES	p53 mut binder	c-Myc SMM	STAT3 SMM	ID4 binder
CCO[C@@H]1OC(C(=O)N2CCCC2)=C[C@H](c2ccc(C(F)(F)F)cc2)[C@H]1CCCO	i	i	i	i
CCC(C)C(NC(=O)C(C)(C)NC(=O)C(C)(CC)NC(=O)C(N)Cc1c[nH]c2ccccc12)C(=O)NC(=O)CCC(NC(C)=O)C(=O)O (stereo not drawn)	i	i	i	x
O=C1C=CC(=O)c2c(O)c(Cl)c(Cl)c(O)c21	i	i	i	x
CNC[C@@H]1OCCCC[C@@H](C)Oc2ccc(NC(=O)Nc3ccccc3)cc2C(=O)N([C@@H](C)CO)C[C@H]1C	i	i	i	i
C=C(C)C1Cc2c(ccc(C(=O)O)c2O)O1 (stereo not drawn)	i	i	i	i
C[C@H](CO)N1C[C@H](C)[C@H](CN(C)Cc2ccncc2)OCCCC[C@H](C)Oc2ccc(NC(=O)c3ccncc3)cc2C1=O	i	i	i	i
Cc1noc(C)c1S(=O)(=O)N(C)C[C@H]1Oc2ccc(NC(=O)CCCN(C)C)cc2C(=O)N([C@@H](C)CO)C[C@H]1C	i	i	i	i
C[C@@H]1CCCCO[C@H](CN(C)S(=O)(=O)c2cn(C)cn2)[C@H](C)CN([C@@H](C)CO)C(=O)c2cc(NC(=O)c3ccccc3)ccc2O1	i	i	i	i
CNC[C@H]1OCCCC[C@@H](C)Oc2ccc(NS(=O)(=O)c3c(C)noc3C)cc2C(=O)N([C@H](C)CO)C[C@@H]1C	i	i	i	i
O=C(Nc1ccccc1)N[C@H]1C[C@H](C(=O)O)Nc2cc(Cl)cc(Cl)c21	i	i	i	i
O=C(CC1NCCNC1=O)Nc1ccccc1 (stereo not drawn)	i	i	i	i
COc1ccc(NC(=O)c2cc(S(=O)(=O)Nc3ccc(OC)cc3)c(Cl)cc2Cl)cc1	i	i	i	i
C[C@H](CO)N1C[C@H](C)[C@@H](CN(C)C(=O)Nc2ccccc2)OCCCC[C@H](C)Oc2ccc(NC(=O)Cc3ccccc3)cc2C1=O	i	i	i	i
Cc1cc(C)c(C)c(S(=O)(=O)NCCc2c(C)[nH]c3ccccc23)c1C	i	i	i	i
COc1ccc([N+](=O)[O-])cc1CSc1nnc(-c2ccccc2)n1-c1ccccc1	i	i	i	i
C[C@@H]1CN([C@H](C)CO)C(=O)c2cccc(NS(=O)(=O)c3ccc(Cl)cc3)c2O[C@H]1CN(C)C(=O)Nc1cccc2ccccc12	i	i	i	i
CNC[C@H]1Oc2ccc(NC(=O)Cc3ccccc3)cc2C(=O)N([C@H](C)CO)C[C@@H]1C	i	i	i	i
COc1ccc(C#Cc2ccc3c(c2)[C@]2(C(=O)N3)[C@H](C(=O)N3CCc4cc(OC)c(OC)cc4C3)[C@H]3C(=O)O[C@H](c4ccccc4)[C@H](c4ccccc4)N3[C@@H]2c2ccc(OCCO)cc2)cc1	i	i	i	i
CSc1ccccc1NC(=O)CN(c1ccc(C)c(Cl)c1)S(C)(=O)=O	i	i	i	i
CC(C)CC(NS(=O)(=O)c1ccc(C(C)(C)C)cc1)C(=O)O (stereo not drawn)	i	i	i	i
c1ncc(CC2CCNCC2)[nH]1	i	i	i	i
C[C@@H]1CN([C@H](C)CO)C(=O)c2cccc(NC(=O)C3CCOCC3)c2O[C@@H]1CN(C)C(=O)Nc1ccccc1	i	i	i	i
COc1ccc(S(=O)(=O)Nc2cccc3c2O[C@H](CN(C)S(=O)(=O)c2cccs2)[C@@H](C)CN([C@H](C)CO)C3=O)cc1	i	i	i	i
COc1ccccc1C(=O)Oc1c(CN2CCOCC2)cc(Cl)c2cccnc12	i	i	i	i
C[C@H]1CN([C@@H](C)CO)C(=O)Cc2cc(NS(=O)(=O)c3ccccc3)ccc2O[C@@H]1CN(C)S(=O)(=O)c1cccs1	i	i	i	i
O=c1onc2cnc3ccccc3n12	i	i	i	x
CNC[C@@H]1Oc2ccc(NC(=O)CCN3CCOCC3)cc2C(=O)N([C@H](C)CO)C[C@@H]1C	i	i	i	x
Cc1noc(C)c1NC(=O)Nc1ccc2c(c1)C(=O)N([C@@H](C)CO)C[C@H](C)[C@H](CN(C)C(=O)Nc1c(C)noc1C)O2	i	i	i	i
O=C1CC(c2ccccc2)Cc2nc(NCc3ccco3)ncc21 (stereo not drawn)	i	i	i	i
O=C(C1=C[C@@H](c2ccc3c(c2)OCO3)C[C@@H](OCCCCO)O1)N1CCN(Cc2ccc3c(c2)OCO3)CC1	i	i	i	x

Sorted by number of heavy atoms (smallest number first): four of the compounds above.
SMILES	p53 mut binder	c-Myc SMM	STAT3 SMM	ID4 binder
O=c1onc2cnc3ccccc3n12	i	i	i	x
CNC[C@@H]1Oc2ccc(NC(=O)CCN3CCOCC3)cc2C(=O)N([C@H](C)CO)C[C@@H]1C	i	i	i	x
O=C(C1=C[C@@H](c2ccc3c(c2)OCO3)C[C@@H](OCCCCO)O1)N1CCN(Cc2ccc3c(c2)OCO3)CC1	i	i	i	x
Cc1noc(C)c1NC(=O)Nc1ccc2c(c1)C(=O)N([C@@H](C)CO)C[C@H](C)[C@H](CN(C)C(=O)Nc1c(C)noc1C)O2	i	i	i	i

The listing picks up with the 2 entries that preceded the break.
SMILES	p53 mut binder	c-Myc SMM	STAT3 SMM	ID4 binder
O=C1CC(c2ccccc2)Cc2nc(NCc3ccco3)ncc21 (stereo not drawn)	i	i	i	i
O=C(C1=C[C@@H](c2ccc3c(c2)OCO3)C[C@@H](OCCCCO)O1)N1CCN(Cc2ccc3c(c2)OCO3)CC1	i	i	i	x
COc1cc(/C=C/C(=O)O[C@@H]2C[C@@](O)(C(=O)O)C[C@@H](O)[C@@H]2O)ccc1O	i	i	i	x
Cc1noc(C)c1S(=O)(=O)N(C)C[C@H]1Oc2ccc(NS(=O)(=O)c3ccc(Cl)cc3)cc2CC(=O)N([C@H](C)CO)C[C@H]1C	i	i	i	i
COCC1=C([C@H](O)c2ccccc2)[C@H](CO)[C@@H]2C(=O)N(C)C(=O)[C@@H]2C1	i	i	i	x
Cc1ccc(S(=O)(=O)N(CCC#N)CCC#N)cc1	i	i	i	i
C[C@@H]1CCCCO[C@H](CN(C)C(=O)Nc2ccccc2)[C@H](C)CN([C@@H](C)CO)C(=O)c2cc(NS(=O)(=O)c3ccc(F)cc3)ccc2O1	i	i	i	x
C[C@@H]1CCCCO[C@H](CN(C)C)[C@@H](C)CN([C@@H](C)CO)C(=O)c2cc(NC(=O)Nc3ccc4c(c3)OCO4)ccc2O1	i	i	i	i
Cc1c(Cl)cccc1NC(=O)CSc1nnc(-c2cccs2)n1C	i	i	i	i
C[C@H](CO)N1C[C@H](C)[C@H](CN(C)Cc2ccc3c(c2)OCO3)Oc2ncc(-c3cccc(F)c3)cc2C1=O	i	i	i	x
O=C(CCc1ccc(O)cc1)c1ccc(O[C@@H]2O[C@H](CO)[C@H](O)[C@H](O)[C@H]2O)cc1O	i	i	i	i
CC(C)NC(=O)Nc1ccc2c(c1)C(=O)N([C@@H](C)CO)C[C@H](C)[C@@H](CN(C)C(=O)Nc1ccc3c(c1)OCO3)OCCCC[C@@H](C)O2	i	i	i	x
C[C@@H]1CN([C@H](C)CO)C(=O)c2cccc(NS(C)(=O)=O)c2O[C@@H]1CN(C)Cc1ccncc1	i	i	i	i
Cc1ccc(NC(=O)c2ccc(NCc3cccnc3)c([N+](=O)[O-])c2)cc1	i	i	i	i
C[C@@H]1CN([C@@H](C)CO)C(=O)c2cc(NS(C)(=O)=O)ccc2O[C@@H]1CN(C)S(=O)(=O)c1cn(C)cn1	i	i	i	x
COC(=O)c1sc(S(=O)(=O)NCc2ccccc2)c(C(=O)OC)c1C	i	i	i	i
C[C@H](CO)N1C[C@H](C)[C@@H](CN(C)S(=O)(=O)c2ccc(Cl)cc2)Oc2c(cccc2N(C)C)C1=O	i	i	i	i
Cc1noc(C)c1S(=O)(=O)Nc1ccc2c(c1)C(=O)N([C@H](C)CO)C[C@H](C)[C@@H](CN(C)C(=O)Nc1cccc3ccccc13)OCCCC[C@H](C)O2	i	+	i	x
COc1ccccc1NC(=O)CCSc1nc(C)cc(C)n1	i	i	i	i
C[C@H]1CCCCO[C@@H](CN(C)C(=O)Nc2ccc(F)cc2)[C@@H](C)CN([C@@H](C)CO)C(=O)c2cc(N(C)C)ccc2O1	i	i	i	i
COC(=O)c1cc(COc2ccc3c(c2)oc(=O)c2ccccc23)c(C)o1	i	i	i	i
CC(C)NC(=O)N(C)C[C@@H]1OCCCC[C@@H](C)Oc2ccc(NC(=O)Nc3cccc4ccccc34)cc2C(=O)N([C@H](C)CO)C[C@@H]1C	i	i	i	i
COc1ccc(CCNC(=O)c2ccc(-c3cccc(C(F)(F)F)c3)o2)cc1OC	i	i	i	i
COCCCNC(=O)c1cc(-c2ccccc2)nc2c(C)cc(C)cc12	i	i	i	i
COC(=O)c1cn(CCCNC(=O)[C@H](Cc2ccccc2)NS(=O)(=O)c2ccc(C)cc2)nn1	i	i	i	+
Cc1noc(C)c1S(=O)(=O)N(C)C[C@@H]1Oc2ccc(NC(=O)Cn3cnnn3)cc2C(=O)N([C@@H](C)CO)C[C@@H]1C	i	i	i	i
C[C@H](CO)N1C[C@H](C)[C@@H](CN(C)C)Oc2ccc(NC(=O)Cn3cnnn3)cc2CC1=O	i	i	i	i
Cc1ccc(NC(=O)CNC(=O)c2ccco2)cc1	i	i	i	i
C[C@H](CO)N1C[C@H](C)[C@@H](CN(C)S(C)(=O)=O)Oc2ccc(N(C)C)cc2C1=O	i	i	i	x
CNC[C@@H]1OCCCC[C@H](C)Oc2ccc(NC(=O)Nc3cccc4ccccc34)cc2C(=O)N([C@@H](C)CO)C[C@@H]1C	i	i	i	i
C[C@H](CO)N1C[C@H](C)[C@H](CN(C)C(=O)NC2CCCCC2)Oc2ccc(NC(=O)Cc3cn(C)c4ccccc34)cc2C1=O	i	i	i	i
Cc1noc(C)c1NC(=O)N(C)C[C@@H]1Oc2c(NC(=O)Nc3ccc(C(F)(F)F)cc3)cccc2C(=O)N([C@@H](C)CO)C[C@H]1C	i	i	i	i
C[C@H](CO)N1C[C@H](C)[C@H](CN(C)C(=O)Nc2cccc3ccccc23)Oc2ccc(NC(=O)c3ccncc3)cc2CC1=O	i	i	i	i
COc1ccc(/C=C/C(=O)O[C@H]2[C@H](O[C@H]3[C@@H]4C=CO[C@@H](O[C@@H]5O[C@H](CO)[C@@H](O)[C@H](O)[C@H]5O)[C@@H]4[C@@]4(CO)O[C@@H]34)O[C@@H](C)[C@H](O)[C@H]2OC(C)=O)cc1	i	i	i	i
C[C@@H]1CCCCO[C@@H](CN(C)S(C)(=O)=O)[C@H](C)CN([C@H](C)CO)C(=O)c2cc(NS(=O)(=O)c3ccccc3)ccc2O1	i	i	i	i
Cc1noc(C)c1NC(=O)Nc1ccc2c(c1)C(=O)N([C@H](C)CO)C[C@@H](C)[C@H](CN(C)S(=O)(=O)c1ccc(Cl)cc1)O2	i	i	i	x
COc1ccc(S(=O)(=O)Nc2ccc3c(c2)C(=O)N([C@@H](C)CO)C[C@@H](C)[C@H](CN(C)Cc2ccc4c(c2)OCO4)O3)cc1	i	i	i	i
COCCOC(=O)N1C(=O)[C@@]2(c3cc(C#CC4=CCCCC4)ccc31)[C@H](C(=O)N1CCc3cc(OC)c(OC)cc3C1)[C@H]1C(=O)O[C@H](c3ccccc3)[C@H](c3ccccc3)N1[C@@H]2c1ccc(O)cc1	i	i	i	i
C[C@@H]1CCCCO[C@@H](CN(C)C)[C@H](C)CN([C@H](C)CO)C(=O)c2cc(N(C)C)ccc2O1	i	i	i	i
CC(CCc1ccccc1)N=c1c([N+](=O)[O-])nn(-c2ccccc2)n1O (stereo not drawn)	i	i	i	i
COc1ccc(CN(C)C[C@@H]2Oc3ccc(NC(=O)C4CCCCC4)cc3C(=O)N([C@H](C)CO)C[C@H]2C)cc1	i	i	i	x
COc1ccc(S(=O)(=O)Nc2cccc3c2O[C@@H](CN(C)C(=O)NC2CCCCC2)[C@H](C)CN([C@H](C)CO)C3=O)cc1	i	i	i	x
COc1ccc(-c2csc3ncn(CC(=O)Nc4ccccc4)c(=O)c23)cc1	i	i	i	i
COc1ccc(COC[C@]23N=C4Sc5ccc([N+](=O)[O-])cc5C(=O)N4[C@H](c4ccccc4O2)[C@H]3CO)cc1	i	i	i	x
OC(c1cc(C(F)(F)F)nc2c(C(F)(F)F)cccc12)C1CCCCN1 (stereo not drawn)	i	i	i	i
COC(=O)C(CC#Cc1ccc2c(c1)[C@]1(C(=O)N2)[C@H](c2ccc(O)cc2)N2[C@H](c3ccccc3)[C@H](c3ccccc3)OC(=O)[C@H]2[C@@H]1C(=O)N1CCN(c2ncccn2)CC1)C(=O)OC	i	i	i	i
C[C@@H]1CCCCO[C@H](CN(C)C(=O)c2ccncc2)[C@@H](C)CN([C@H](C)CO)C(=O)c2cc(N(C)C)ccc2O1	i	i	i	i
C[C@H](CO)N1C[C@H](C)[C@@H](CN(C)Cc2ccc(O)cc2)OCc2cn(nn2)CCCC1=O	i	i	i	i
CC(C)NC(=O)Nc1ccc2c(c1)C(=O)N([C@@H](C)CO)C[C@H](C)[C@H](CN(C)C(=O)Nc1ccccc1)OCCCC[C@@H](C)O2	i	i	i	i
C[C@@H]1CCCCO[C@H](CN(C)C(=O)c2ccncc2)[C@@H](C)CN([C@@H](C)CO)C(=O)c2cc(NC(=O)CCC(F)(F)F)ccc2O1	i	i	i	i
